Compound activity from PubChem.
Cruzain Triton: blocks cruzain activity in presence of Triton detergent. purified cruzain, Z-FR-AMC fluorescence, 0.01% Triton. 200,000 tested, 0.43% active. P25779. AID 1478. Potency, µM, for the others: max response, negative = inhibition, usual class: inhibitors; active means well fitted curve in the direction sought with a large enough effect; inconclusive means small, poorly fitted or top-dose-only effect, or another doubt; inactive means no such curve, though single readings can be large; an effect the other way counts as inactive or inconclusive;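 further: plate controls were neutral wells for no effect and buffer without enzyme for full effect; nearly all actives have a fitted effect of over 40% in size; top concentration of the series not given in the record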
Target sequence (P25779 123-467 limits assumed): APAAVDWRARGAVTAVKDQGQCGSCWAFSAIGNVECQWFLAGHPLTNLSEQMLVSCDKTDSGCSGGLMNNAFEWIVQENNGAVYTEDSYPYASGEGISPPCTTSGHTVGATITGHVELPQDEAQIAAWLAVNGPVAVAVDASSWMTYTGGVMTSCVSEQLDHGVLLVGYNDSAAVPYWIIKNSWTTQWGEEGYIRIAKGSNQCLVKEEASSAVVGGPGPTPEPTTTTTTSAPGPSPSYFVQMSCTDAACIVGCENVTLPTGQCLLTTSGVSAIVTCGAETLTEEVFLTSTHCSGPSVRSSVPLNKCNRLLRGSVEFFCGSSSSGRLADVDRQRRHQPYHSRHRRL
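15 min RT preincubation of 1.5 nM cruzain with compound, then 2 uM Z-FR-AMC added; kinetic AMC fluorescence, 60 s delta. Triton X-100 0.01%, pH 5.5.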
Lassa entry inh: Lassa virus entry inhibition; Lassa virus pseudotype entry inhibition, cell reporter; control for the full effect not named in the record; Potency, µM (highest dose often 37.9 µM), inactives show at the highest dose activity change, negative = inhibition, hits mostly inhibitors; 300,000 tested, 1.2% active; active means well fitted inhibition curve with a large enough effect; inconclusive means small, poorly fitted or top-dose-only effect, or effect the other way; inactive means flat fitted curve, though single readings scatter; tested in HEK293 cells; further: on the % scale 0 is the no-effect control and ±100 the full control effect; nearly all actives have a fitted effect of over 50% in size; luciferase read-out
NS1 function inh: inhibitors of influenza NS1 protein function. 270,000 tested, 0.4% active. Potency, µM (highest dose often 46.1 µM), for inactives: at the top dose activity, positive = more growth. S. cerevisiae slowed by influenza A NS1, growth recovery by OD600. AID 2326; further: actives are rising curves; nearly all actives have a fitted effect of over 50% in size
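A cell-based growth assay was used: compounds that relieve NS1-induced slow growth of budding yeast raise OD600. Assay medium was yeast nitrogen base with ammonium sulphate and -URA supplement, pH 6.0, with 2% galactose.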
SARS PLP yeast: SARS-CoV PLP inhibition in yeast | S. cerevisiae expressing SARS-CoV PLpro, growth rescue; control for the full effect not named in the record | Potency, µM (series often up to 32.9 µM), inactives show at the top dose activity, positive = growth rescue | 330,000 tested, 0.19% active; further: 0% is about no effect; nearly all actives have a fitted effect of over 55% in size; growth read by luminescence after 48 h
Cruzain noTriton: blocks cruzain activity in detergent-free assay; Potency, µM, without a hit: max response, negative = inhibition, most hits filed as inhibitors; purified cruzain, Z-FR-AMC fluorescence, no detergent; 200,000 tested, 2.3% active; AID 1476; active means well fitted curve in the direction sought with a large enough effect; inconclusive means small, poorly fitted or top-dose-only effect, or another doubt; inactive means no such curve, though single readings can be large; an effect the other way counts as inactive or inconclusive;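 further: plate controls were enzyme without inhibitor for no effect and buffer without enzyme for full effect; nearly all actives have a fitted effect of over 40% in size; top concentration of the series not given in the record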
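Detergent-free condition (0.00005% Triton X-100) in acetate buffer pH 5.5 with DTT. 1.5 nM enzyme and compound were pre-mixed 15 min, then 2 uM Z-FR-AMC substrate added; reaction progress from fluorescence change between first and third reads (60 s).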
Marburg entry inh: Marburg virus entry inhibition; Marburg virus pseudotyped entry inhibition, cell reporter; control for the full effect not named in the record; about a third of the inactives were read at about 46 µM; Potency, µM (top dose mostly 37.8 µM), without a hit: at the highest dose activity change, negative = inhibition, most hits filed as inhibitors; 300,000 tested, 1.8% active; AID 540276; active = well fitted inhibition curve with a large enough effect; inconclusive = small, poorly fitted or top-dose-only effect, or effect the other way; inactive = flat fitted curve, though single readings scatter; tested in HEK293 cells; about a fifth of its hits are not listed in these tables; further: on the % scale 0 is the no-effect control and ±100 the full control effect; luciferase read-out
RE007 growth inh: less growth of the S. pombe RE007 Vpr strain; Potency, µM (highest dose often 92.2 µM), for inactives: at the highest dose activity change, negative = less growth; 360,000 tested, 0.21% active; S. pombe RE007 Vpr strain, BacTiter-Glo ATP luminescence, 24 h; control for the full effect not named in the record; AID 651644; active = well fitted falling curve with a large enough effect; inconclusive = small, poorly fitted or top-dose-only effect; inactive = no such curve, though single readings can be large or run the other way;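 further: on the % scale 0 is the no-effect control and ±100 the full control effect; nearly all actives have a fitted effect of over 50% in size; the assay follows cell death caused by Vpr and the record does not say whether a fall means rescue or toxicity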
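Fission yeast strain RE007, carrying one chromosomally integrated HIV-1 vpr copy, was seeded at OD 0.01 in PMG+AL medium with 23 nL pinned compound. After 24 h at 30 °C and 99% humidity, viability was read by BacTiter-Glo luminescence.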
StopGo reporter: FMDV 2A StopGo reporter, luciferase signal; 410,000 tested, 1.2% active; Potency, µM (top dose mostly 57.9 µM), for the others: at the highest dose signal change, negative = less light; human cells with a luciferase reporter of 2A StopGo recoding; control for the full effect not named in the record; active = well fitted falling curve with a large enough effect; inconclusive = small, poorly fitted or top-dose-only effect; inactive = no such curve, though single readings can be large or run the other way; tested in HEK293T cells; further: on the % scale 0 is the no-effect control and ±100 the full control effect; nearly all actives have a fitted effect of over 45% in size; luciferase light after 4 h
* = called active by the depositor; ? = inconclusive; . = not tested or not shown; & = joins results of further samples; [ ] = another dose, or the depositor's remark. Unless noted, the call rests on the fitted dose curve; in most records, active means well fitted rising curve with a large enough effect; inconclusive means small, poorly fitted or top-dose-only effect; inactive means no such curve, though single readings can be large or run the other way. Potency means the concentration at half of the fitted maximal effect.

SMILES	Cruzain Triton	Lassa entry inh	NS1 function inh	SARS PLP yeast	Cruzain noTriton	Marburg entry inh	RE007 growth inh	StopGo reporter
COCCN1C(=O)N[C@@H](c2cccc(F)c2)C(C(=O)OC)=C1C	.	.	0%	-2%	.	1%[14.2 µM]	1%	-10%
CCOC(=O)N1CCN(Cc2nc(-c3cccc(Cl)c3)no2)CC1	.	0%[46.1 µM]	-3%	-4%	.	?	-3%	11%
CCC(=O)Nc1ccc(SC#N)cc1C	-7.6%	-19%	-3%	-32%	-7%	-14%	4%	.
CCc1nn2c(=O)cc(COC(=O)C3CCCCC3)nc2s1	-6.6%	17%[46.1 µM]	.	.	-10%	.	.	10%
COc1cccc(C=NN2CCCCCC2)c1OC	.	-2%[46.1 µM]	.	.	.	?	-5%	37%[activator]
CCOC(=O)c1c(C)[nH]c(C=Nc2ccccc2)c1O	-3.1%	.	4%	3%	-16%	0%	.	.
COC(=O)COc1ccc2oc(=O)cc(-c3cc4ccccc4o3)c2c1	.	.	2%	-5%	.	.	-3%	-6%
COc1ccc(Cc2nnc(SCC(=O)c3ccc(OC)cc3)o2)cc1	-9.5%	?	-20%	-7%	-4%	-30%	-3%	.
COc1ccc(CNC(=O)COc2ccc([N+](=O)[O-])cc2)cc1	2.8%	?	4%	-7%	-4%	0%	2%	0%
CCCCN(C)C(=O)C1CCC(CNS(=O)(=O)c2ccc3c(c2)CC(C)N3C(C)=O)CC1 (stereo not drawn)	-2.0%	?	-3%	1%	?	-28%&-28%[46.1 µM]	8%	-10%&-25%
COc1ccc(O)c(C2=Nc3ccccc3N=C(c3cccs3)C2)c1	-7.1%	8%	-9%	-26%	-26%	5%	8%	-7%
C/C(Cn1cnc([N+](=O)[O-])n1)=N\NC(=O)c1ccc(O)cc1O	.	27%	4%	1%	.	3%[46.1 µM]	2%	-2%
CN1C2CCC1CC(OC(=O)c1ccc(Cl)cc1)(C(=O)O)C2 (stereo not drawn)	-1.6%	6%	-9%	-5%	-3%	-5%	6%	-15%
CC(C)CCCC(C)CCOC(=O)CN1CCCC1 (stereo not drawn)	.	17%	-2%	1%	.	6%[46.1 µM]	-18%	0%
Cc1nnc(SC(C)C(=O)Nc2ccc(S(=O)(=O)N3CCCCCC3)cc2)s1 (stereo not drawn)	-4.7%	-10%	-12%	-4%	4%	0%	-4%	-16%
Cc1cccc(NC(=O)C(=O)NCCc2c[nH]c3ccccc23)c1C	.	6%[46.1 µM]	.	-2%	.	?	3%	1%
COc1ccc(C(=O)COC(=O)COc2ccc(C)c(C)c2)cc1	-14%	-1%	-44%	-5%	-8%	10%	-4%	-10%
Cc1nnc(SCC(=O)NC(C)(C)C)n1NCc1cccc(Br)c1	.	-8%[46.1 µM]	6%	6%	.	-1%[46.1 µM]	6%	-21%
CCS(=O)(=O)N1CCN(Cc2ccccc2OC)CC1	0.8%	12%	0%	3%	-3%	-5%	12%	.
Cc1cccc(N2CCN(C(=O)C3CCN(S(=O)(=O)c4cnc[nH]4)CC3)CC2)c1C	7.0%	13%	-7%	0%	9%	4%[46.1 µM]	-5%	-7%
C=CCn1c(C)csc1=Nc1ccccc1C	.	?	-3%	-2%	.	26%[46.1 µM]	5%	39%[activator]
N#Cc1ccc(OCC(O)CS(=O)(=O)c2ccccc2)cc1 (stereo not drawn)	.	?	5%	0%	.	4%[46.1 µM]	3%	-8%
CCOc1ccccc1CNC(=O)c1cnc2c(-c3ccc(OCC)c(OCC)c3)c(C)nn2c1C	-2.3%	-2%[46.1 µM]	.	.	-11%	.	.	?
Cc1cc2cc(C)c(NCCNC(=O)c3ccccc3Cl)nc2cc1C	.	-17%	.	0%	.	?	-5%	-2%
CSc1ccc(C(=O)C2CCCN(Cc3ccn[nH]3)C2)cc1 (stereo not drawn)	.	17%	1%	2%	.	-1%[46.1 µM]	-9%	-13%
SMILES	Cruzain Triton	Lassa entry inh	NS1 function inh	SARS PLP yeast	Cruzain noTriton	Marburg entry inh	RE007 growth inh	StopGo reporter
Cc1onc(-c2ccccc2)c1C(=O)N=C(N)c1ccc(C(F)(F)F)cc1	.	6%	0%	0%	.	-5%[46.1 µM]	-16%	0%
Cc1nc(-c2ccc(Cl)cc2)sc1C1(C)CC(c2ccc(C#N)cc2)=NO1 (stereo not drawn)	.	.	-1%	-1%	.	.	-6%	4%
Nn1c(COc2ccccc2F)nnc1SCC(=O)NC1CC1	.	-3%	.	3%	.	18%	-25%	-13%
CC1CN(Cc2ccc(C#N)cc2Cl)CC(C)O1 (stereo not drawn)	3.4%	-11%	-2%	?	-4%	1%	-11%	-13%
Cc1ccc(/C=N/NC(=O)Cc2c[nH]c3ccccc23)c(C)c1	-13%	?	-59%	-10%	20%	?	5%	23%
Cc1cc(C(=O)O)cc(S(=O)(=O)Nc2c(C)nn(C)c2C)c1C	.	-10%	.	5%	.	-19%	0%	-4%
CC(=O)Nc1ncc(Cc2ccc(Cl)cc2Cl)s1	.	.	-31%	-4%	.	.	0%	-8%
Cc1ccc(C(=O)Nc2ccc3oc(-c4ccc(C(C)(C)C)cc4)nc3c2)cc1	-0.4%	-9%[46.1 µM]	.	.	-8%	.	.	?
O=C(Nc1ccc(F)cc1F)N1CCN(c2ccc(Cl)c(Cl)c2)CC1	-12%	22%[46.1 µM]	.	.	-21%	4%[46.1 µM]	.	?
COc1ccccc1N1CCN(c2cc(C)nc3nncn23)CC1	-2.5%	-1%[46.1 µM]	.	.	-8%	-28%[46.1 µM]	.	-15%
O=C(CCSCCC(=O)NCc1cccs1)NCc1cccs1	0.1%	-1%	0%	-1%	-3%	1%	7%	5%
CC(=O)CCc1c(C)c2cc(C)ccc2[nH]c1=O	-1.7%	14%	-3%	-3%	4%	4%	-5%	33%[activator]
CCn1c(SC(=O)NC2CCCCC2)nnc1-c1cccs1	3.4%	-18%	-40%	1%	5%	3%	7%	35%[activator]
CCOC(=O)CSc1nc(-c2ccccc2)nc2ccc(F)cc12	-4.7%	6%	-13%	-2%	2%	-15%	0%	0%
COc1ccc(NC(=O)c2cc3c(-c4ccc(OC)c(OC)c4)nn(C)c3s2)cc1OC	-7.2%	13µM*	-17%	-2%	?	13µM*	-28%	-25%
CSCC(=O)N1CCC(n2nccc2NC(=O)c2ccc3c(c2)OCO3)CC1	.	.	-2%	-4%	.	.	4%	60%[activator]
O=c1c2oc3ccccc3c2n(Cc2cccc(F)c2)c(=O)n1Cc1ccco1	-2.0%	18%[46.1 µM]	.	.	-4%	.	.	?
O=C(O)CCc1ccc(-c2ccc(Br)cc2)n1NC(=O)c1ccc([N+](=O)[O-])cc1	.	.	2%	1%	.	.	0%	-11%
CN(C)C(=O)c1ccc(NC(=O)c2sccc2-c2ccccc2)cc1	.	0%[46.1 µM]	0%	12%	.	0%[46.1 µM]	-4%	-8%
CCn1c(=O)c([N+](=O)[O-])c(NCCc2ccccc2)c2ccccc21	1.5%	?	4%	-6%	-13%	?	-21%	?
COc1ccc(NC(=O)c2sc3nc4c(cc3c2N)CCCCCC4)cc1OC	-2.9%	-30%[46.1 µM]	.	.	?	7%[46.1 µM]	.	-8%
COC(=O)/C=c1\[nH]c2nnc(C)n2c1=O	.	1%[46.1 µM]	5%	-2%	.	4%[46.1 µM]	8%	16%
O=C(OCC(=O)N1CCN(C(=O)c2ccco2)CC1)c1ccccc1OCc1ccc(Cl)cc1	0.3%	?	-1%	7%	?	?	-25%	?
O=C(O)CCC(=O)NNC(=O)COc1cccc(Cl)c1	.	3%	5%	0%	.	15%[46.1 µM]	-4%	-12%
O=C(c1ccc(S(=O)(=O)N2CCCCC2)cc1)N1CCN=C1SCc1cccnc1	-0.6%	.	-4%	-5%	-8%	-2%	2%	-7%
SMILES	Cruzain Triton	Lassa entry inh	NS1 function inh	SARS PLP yeast	Cruzain noTriton	Marburg entry inh	RE007 growth inh	StopGo reporter
Cc1nnc(Sc2nc3c(c(=O)[nH]c(=O)n3C)n2Cc2ccccc2)s1	.	.	3%	1%	.	.	-3%	-14%
CCOC(=O)c1cc(C(=O)Nc2sc3c(c2C#N)CCCC3)nn1C	.	13%[46.1 µM]	25%	3%	.	2%[46.1 µM]	10%	-7%
CC(C)(C)OC(=O)NC(Cc1ccccc1)C(=O)NC(CSC1CCCCO1)C(=O)NN (stereo not drawn)	.	.	?	1%	.	.	26%	-14%
COC(=O)c1ccc2c(=O)[nH]c(CSc3nc(C)cs3)nc2c1	.	?	.	1%	.	?	-15%	23%
Cc1cccc(C)c1NC(=O)/C(C#N)=C/c1ccsc1	-3.2%	13%	1%	-7%	1%	?	-15%	?
CC12CCC(O)CC1=CCC1C2CCC2(C)C1CCC21CCC(=O)O1 (stereo not drawn)	-2.7%	-28%	-6%	-26%	-8%	-6%	32%	?
Cc1ccccc1CN1CCN(C(C)C(=O)NCc2ccccc2)CC1 (stereo not drawn)	.	23%[46.1 µM]	8%	-6%	.	-16%[46.1 µM]	9%	-11%
CCN(CC)C(=O)C(Sc1ccccc1)c1ccccc1 (stereo not drawn)	2.4%	-17%	2%	3%	-6%	?	-2%	?
Cc1nc(CC(=O)N/N=C/c2ccc(OCC(=O)O)cc2)cs1	.	.	5%	1%	.	.	-1%	-7%
CC1(C)ON(C2CCCCC2)[C@H]2c3nc4ccccc4n3C[C@H]21	.	.	2%	5%	.	.	-5%	7%
CC1C(=O)Nc2ccc(S(=O)(=O)NCc3ccc(Cl)cc3)cc2NC1=O (stereo not drawn)	.	.	7%	-1%	.	.	-11%	-24%
CCOC(=O)CC(NC(C)=O)c1ccc([N+](=O)[O-])cc1 (stereo not drawn)	1.1%	-10%	7%	1%	22%	-6%	.	-23%
Fc1ccc(NC(=S)NCCN2CCOCC2)c(F)c1F	.	11%	0%	-1%	.	32%[46.1 µM]	-6%	41%[activator]
CCOC(=O)CNC(=O)c1c(C)nn(-c2ccccc2)c1Cl	5.7%	?	-23%	-1%	-1%	-26%	5%	33%[activator]
